# CtBP-E1A blk: CtBP/E1A binding inhibition; 340,000 tested, 0.49% active; activity change, % (test concentration not listed); AID 651724; AlphaScreen GST-E1A/His-CtBP binding, 1536-well; active compounds read low; control for the full effect not named in the record; in the data active means activity change below about -65%; inconclusive means about -30% to -65%; inactive means above about -30%; also: % is scaled to controls: 0 for no effect and ±100 for the full control effect
#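 Steps: dispense buffer (Tris pH 8.0, NaCl 300 mM, TCEP 1 mM, BSA, Tween 20); add 5X protein mix (GST-E1A, His-CtBP, 125 nM each); pin 23 nL compound; 2 h at 37 °C, dark; add 5X beads (50 ug/mL); 1 h; read.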
# D2 ag: human D2 receptor agonism in beta-arrestin assay. 360,000 tested, 0.084% active. DiscoveRx PathHunter D2 beta-arrestin, luminescence, 90 min; 100% = 57 uM dopamine signal. activation, % (test concentration not listed); in the data active = activation above about 40%; inconclusive = about 15% to 40%; inactive = below about 15%; also: compound concentration not given in the record; the text of the record calls up to 30% inactive
#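 Agonist mode: compounds alone added to overnight-plated D2 PathHunter cells for 90 min at 37 C, with 57 uM final dopamine (EC100) defining full response. Beta-arrestin recruitment detected by chemiluminescent reagent, read after 1 h at ambient temperature.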
# Six1-Eya2 inh: inhibitors of human Six1/Eya2 interaction; AlphaScreen GST-Six1/His-Eya2 binding, biochemical; active compounds read low; control for the full effect not named in the record; activity change, % (concentration not given with the values); 360,000 tested, 0.56% active; Q15475+O00167; in the data active = activity change below about -65%; inconclusive = about -30% to -65%; inactive = above about -30%; also: % is scaled to controls: 0 for no effect and ±100 for the full control effect
# Target sequence (O00167 whole entry, looked up): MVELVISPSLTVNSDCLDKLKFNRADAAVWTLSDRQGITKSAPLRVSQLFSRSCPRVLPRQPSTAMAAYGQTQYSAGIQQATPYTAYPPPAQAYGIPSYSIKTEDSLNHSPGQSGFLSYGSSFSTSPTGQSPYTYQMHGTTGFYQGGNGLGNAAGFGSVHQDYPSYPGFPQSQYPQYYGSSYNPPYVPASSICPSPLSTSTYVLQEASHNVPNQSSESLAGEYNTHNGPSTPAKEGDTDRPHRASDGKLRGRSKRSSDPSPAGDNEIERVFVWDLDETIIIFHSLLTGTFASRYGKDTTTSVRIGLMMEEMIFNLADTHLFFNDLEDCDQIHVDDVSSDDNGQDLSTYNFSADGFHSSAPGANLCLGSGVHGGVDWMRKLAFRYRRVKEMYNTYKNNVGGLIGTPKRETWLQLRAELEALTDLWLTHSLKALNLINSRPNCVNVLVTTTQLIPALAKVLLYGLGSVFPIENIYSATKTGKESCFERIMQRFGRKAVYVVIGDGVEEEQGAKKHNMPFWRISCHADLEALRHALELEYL
# Target sequence (Q15475 whole entry, looked up): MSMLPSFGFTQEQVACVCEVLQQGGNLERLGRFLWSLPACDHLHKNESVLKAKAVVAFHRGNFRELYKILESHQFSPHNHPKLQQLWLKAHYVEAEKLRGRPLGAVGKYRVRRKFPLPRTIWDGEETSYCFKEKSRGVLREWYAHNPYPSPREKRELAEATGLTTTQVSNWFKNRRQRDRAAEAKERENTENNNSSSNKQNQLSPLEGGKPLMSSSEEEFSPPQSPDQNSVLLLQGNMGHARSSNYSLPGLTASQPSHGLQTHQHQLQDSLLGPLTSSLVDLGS
#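 AlphaScreen with GST-Six1 and His-Eya2 (5X mix: 250 nM and 500 nM), glutathione donor and nickel acceptor beads; buffer 50 mM Tris pH 8.0, 300 mM NaCl, 1 mM TCEP; 1 h at 37 C in the dark.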
# TRPML1 inh: human mucolipin-1 channel inhibition; activity change, negative = inhibition, % (test concentration not listed); TRPML1-inducible cells, Ca2+ dye fluorescence, FDSS; active compounds read low; inhibition of EC80 agonist-evoked calcium signal; AID 624415; Q9GZU1; 390,000 tested, 0.02% active; in the data active means activity change below about -50%; inconclusive means about -30% to -50%; inactive means above about -30%;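 also: stimulus is agonist 54-4 at its EC80 concentration; % is scaled to controls: 0 for no effect and ±100 for the full control effect; compound concentration not given in the record; the text of the record puts the active cut at -80%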
#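 TRPML1-DL cells, Tet-induced overnight (~16 h, 37 °C) at 1,500 cells/well, were loaded with Ca8 no-wash dye plus quencher for 45-90 min at room temperature. Compounds were pinned during FDSS kinetic reading; agonist 54-4 at EC80 (4 uM final) then added.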
# PINK1 modulator: changes PINK1 expression. Potency, µM (doses to about 76.6 µM), for inactives: at the top dose activation (PINK1 increase), actives largely listed as activators. 410,000 tested, 0.2% active. PINK1 immunofluorescence, high-content cytometry, 24 h. AID 624263; active = well fitted activation curve with a large enough effect; inconclusive = small, poorly fitted or top-dose-only effect; inactive = flat fitted curve, though single readings scatter; cell line not stated here;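 also: potency is read from the fitted curve at half-maximal effect; % of control where 0% means no effect; nearly all actives have a fitted effect of over 65% in size; a mitochondrial uncoupler was the plate control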
#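 Compound titrations (5 concentrations, 24 h) on a stable cell line; DMSO and CCCP controls. Endpoint: fixed-cell PINK1 immunofluorescence with mitochondrial, cell and nuclear markers, scanned by microplate cytometer.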
# TRPML1 ag: activates the human TRPML1 channel; Q9GZU1; activation, % (test concentration not listed); TRPML1-expressing cells, Ca2+ dye fluorescence, FDSS; host cell line not named in the record; reference of the full effect not given here; 410,000 tested, 0.12% active; in the data active = activation above about 50%; inconclusive = about 30% to 50%; inactive = below about 30%; also: 0% is about no effect; the text of the record puts the active cut at 80%
#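 Tetracycline-induced TRPML1-DL cells are seeded and incubated overnight before loading with a no-wash Ca2+ dye and quencher. Agonist activity is taken from the 110 s fluorescence read following compound pin-transfer on an FDSS, before EC80 54-4 challenge.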
# Starred values were filed as active, the others as inactive; ? = inconclusive; · = not tested or not shown; [ ] = dose if it differs, or a comment. Rows are unselected. Share with any hit: about 1%.
SMILES,CtBP-E1A blk,D2 ag,Six1-Eya2 inh,TRPML1 inh,PINK1 modulator,TRPML1 ag
O=C(Cn1c(CN2CCCCC2)nc2ccccc2c1=O)NC1CCCCC1,4,0.3,5,21,14%[38.3 µM],0.6
COc1ccc2c(c1)CCC/C2=N/OC(=O)c1ccccc1OC,·,-3.3,16,-7,0.6%,-0.1
Cc1ccc(C(CC(=O)Nc2ccc(F)c(Cl)c2)N2Cc3ccccc3C2=O)cc1 (stereo not drawn),·,·,·,9,1.5%,0.5
COc1ccc(C(=O)N(Cc2ccccc2)Cc2cc3cc4c(cc3[nH]c2=O)OCCO4)cc1,7,-3.3,0,6,28%[38.3 µM],1.0
O=C(O)COc1ccccc1/C=N/NC(=O)CN1CCN(S(=O)(=O)c2ccc(Br)cc2)CC1,-3,-4.9,-10,-8,-0.1%,0.5
Cc1cc(C(F)F)nn1CC(=O)NCc1ccccc1F,-1,2.0,-1,-12,0.9%,0.8
CCc1ccc(C(=O)c2cn(CC(=O)Nc3ccc(F)cc3)c3ccc(F)cc3c2=O)cc1,·,·,·,14,6.0%,0.3
Cc1cccc(C(=O)Oc2c(Br)cc(Br)cc2/C=N/NC(=O)c2ccncc2)c1,2,-5.1,-2,-4,-0.2%,-1.0
COc1ccc(-c2cc(C(F)(F)F)nc(SCC(=O)Nc3ccc4c(c3)OCO4)n2)cc1OC,1,1.7,0,17,5.4%,0.1
CCCOc1ccc(/C=N/NC(=O)c2ccc3c(c2)OCO3)c(OCCC)c1,-6,-2.9,-15,42,5.2%,4.3
CCOC(=O)N1CCN(c2cc(NCCO)c([N+](=O)[O-])c3nonc23)CC1,-4,-2.3,7,1,0.6%,-0.1
CC(C)C[C@H]1CN(CCCC[C@H]2CNC(=O)C(=O)N2CC2CCCCC2)C(=O)C(=O)N1Cc1ccccc1,2,·,35,·,0.2%,0.0
C/C(CC(=O)Nc1cccnc1)=N\NC(=O)C(C)Oc1ccc(Cl)cc1Cl (stereo not drawn),0,-3.3,3,-19,-1.1%,-0.7
CCOc1ccccc1OCC(=O)O,-2,-1.6,17,29,1.4%,0.7
CC(C)c1nnc(NC(=O)CCC(=O)Nc2ccc(Cl)cc2)s1,-1,-2.1,0,3,-1.0%,-0.4
O=C(CSc1nnc(Cc2cc(=O)[nH]c(=O)[nH]2)n1-c1ccccc1)N1CCCC1,0,1.3,3,-7,-1.1%,0.8
CC(C)CNC(=O)C1(C)CCCCCN1C(=O)c1cc(C#N)cs1 (stereo not drawn),-5,-3.1,4,-12,0.7%,0.3
Brc1ccccc1CN1CCN(Cc2c[nH]c3ccccc23)CC1,-8,-5.3,-11,34,-2.5%,0.5
CCOc1ccc2nc(SCC(=O)N3c4ccccc4Sc4ccccc43)sc2c1,9,-2.2,14,1,0.1%,-0.6
O=C(O)CN(Cc1ccccc1)S(=O)(=O)c1ccc(F)cc1,5,-1.7,3,3,4.7%[38.3 µM],-0.7

# Ordered by molar mass (ascending): some entries from above
SMILES,CtBP-E1A blk,D2 ag,Six1-Eya2 inh,TRPML1 inh,PINK1 modulator,TRPML1 ag
CCOc1ccccc1OCC(=O)O,-2,-1.6,17,29,1.4%,0.7
CC(C)CNC(=O)C1(C)CCCCCN1C(=O)c1cc(C#N)cs1 (stereo not drawn),-5,-3.1,4,-12,0.7%,0.3
CCOC(=O)N1CCN(c2cc(NCCO)c([N+](=O)[O-])c3nonc23)CC1,-4,-2.3,7,1,0.6%,-0.1
Brc1ccccc1CN1CCN(Cc2c[nH]c3ccccc23)CC1,-8,-5.3,-11,34,-2.5%,0.5
O=C(CSc1nnc(Cc2cc(=O)[nH]c(=O)[nH]2)n1-c1ccccc1)N1CCCC1,0,1.3,3,-7,-1.1%,0.8

# (next part)
SMILES,CtBP-E1A blk,D2 ag,Six1-Eya2 inh,TRPML1 inh,PINK1 modulator,TRPML1 ag
CCN1CCCC(OC(=O)Nc2ccccc2)C1 (stereo not drawn),4,-4.3,-2,-4,1.1%,0.0
COC(=O)CCC(=O)Nc1cc(Cl)cc(Cl)c1,6,-2.6,9,-20,0.2%,0.5
CC(C)(C)OC(=O)NC(CCNC=C1C(=O)OC(C)(C)OC1=O)C(=O)O (stereo not drawn),1,1.2,4,19,?,0.6
COc1ccc2cc(C(C)C(=O)NC3CCC(O)CC3)ccc2c1 (stereo not drawn),2,-3.8,-1,11,4.4%,-0.2
CCCC(=O)NC(C)c1nc2ccccc2n1Cc1ccccc1 (stereo not drawn),·,·,·,-3,4.0%,4.3
Cc1ccc(CCNC(=O)CCCn2c(=O)c3cccn3c3ccc(F)cc32)cc1,·,·,·,4,-0.3%,4.4
O=C(NC1CCCCC1)C(c1ccc(Cl)cc1)N(C(=O)c1cnccn1)c1ccc2c(c1)OCO2 (stereo not drawn),8,1.8,0,-3,·,-0.5
CC(C)(C)NC(=O)CN(C(=O)Cn1nnc(-c2ccccc2F)n1)c1cccc2c1CCCC2,-6,4.6,-5,4,1.9%,2.4
Nc1ccc(C(=O)C(=O)c2ccc(N)cc2)cc1,·,0.0,-2,1,0.5%,1.2
Cc1ccc(C)c(CN2CCC(CNC(=O)c3cc4ccc5cccnc5c4[nH]3)CC2)c1,·,·,·,1,-1.2%,0.2
CSc1ncccc1C(=O)OCC(=O)Nc1ccc(N2CCOCC2)cc1,0,3.3,-3,-24,2.5%,0.9
COc1ccccc1CNc1cc(C)ccc1C,11,-3.6,-7,6,15%[38.3 µM],0.0
CCc1c(C)c(C#N)c2nc3ccccc3n2c1NCC1CCCO1 (stereo not drawn),4,-3.9,14,-10,-2.6%,1.8
CN(C(=O)c1ccc2c(c1)OCCO2)c1c(N)n(Cc2ccccc2)c(=O)[nH]c1=O,8,3.3,-4,-1,0.4%,-0.4
CS(=O)c1ccccc1COC(=O)Nc1cccc(Cl)c1 (stereo not drawn),-6,0.3,-2,-2,-0.5%[38.3 µM],-0.1
Cc1ccccc1CNC(=O)Cc1cccs1,·,-6.5,-3,12,0.0%,0.1
CC[n+]1c(S(=O)(=O)[O-])ccc2ccc(C)cc21,6,-5.3,2,13,1.1%,0.0
C(/C=C/C=C/Nc1ccccc1)=Nc1ccccc1,1,0.7,3,5,5.2%[38.3 µM],0.5
O=C(NCCN1CCOCC1)c1cn(-c2ccccc2)nc1-c1cccs1,2,-3.3,0,-1,1.3%,-0.1
CCC(C(=O)N1CCN(c2ccc(OC)cc2)CC1)n1nc(C)n2c(cc3occc32)c1=O (stereo not drawn),·,·,·,6,8.6%,0.2

# Filtered by structure, the entries above containing an aryl thioether with sulfur outside any ring.
SMILES,CtBP-E1A blk,D2 ag,Six1-Eya2 inh,TRPML1 inh,PINK1 modulator,TRPML1 ag
COc1ccc(-c2cc(C(F)(F)F)nc(SCC(=O)Nc3ccc4c(c3)OCO4)n2)cc1OC,1,1.7,0,17,5.4%,0.1
O=C(CSc1nnc(Cc2cc(=O)[nH]c(=O)[nH]2)n1-c1ccccc1)N1CCCC1,0,1.3,3,-7,-1.1%,0.8
CCOc1ccc2nc(SCC(=O)N3c4ccccc4Sc4ccccc43)sc2c1,9,-2.2,14,1,0.1%,-0.6
CSc1ncccc1C(=O)OCC(=O)Nc1ccc(N2CCOCC2)cc1,0,3.3,-3,-24,2.5%,0.9

# More compounds.
SMILES,CtBP-E1A blk,D2 ag,Six1-Eya2 inh,TRPML1 inh,PINK1 modulator,TRPML1 ag
C=CCN1C(=NC(=O)COc2ccccc2)SC2CS(=O)(=O)CC21 (stereo not drawn),5,4.0,0,-9,-0.6%,-0.6
O=C(COc1ccccc1Cl)Nc1cc(Cl)ccc1Oc1ccccc1,-3,1.1,12,-1,4.8%,-0.3
CCOC(=O)Cn1c(=O)c2c(nc3n2CCCN3CCc2ccccc2)n(C)c1=O,-3,4.2,-7,-4,1.7%,0.5
Cn1c(=O)c2[nH]c(CN(Cc3ccccc3)Cc3ccccc3)nc2n(C)c1=O,-3,-2.9,0,-6,1.7%,-0.1
COc1ccc(C[C@H]2CN3C(=NC[C@@H]3Cc3ccccc3)N2CCNC(=O)CCC2CCCCC2)cc1,-4,-0.4,-1,25,0.6%,0.2
CCN1CCN(c2nc3ccccc3nc2NS(=O)(=O)c2ccc(NC(C)=O)cc2)CC1,·,2.3,10,-6,-0.9%,0.1
COc1ccc(NC(=O)C2CC(=O)OC2(C)C)cc1 (stereo not drawn),7,0.0,3,-17,-0.9%[38.3 µM],0.4
COc1ccc(N2CC(C(=O)N3CCN(c4ccccc4F)CC3)CC2=O)cc1 (stereo not drawn),-3,-2.4,3,0,6.9%,-0.3
Cc1ccc(C(=O)c2ccc(CC(=O)O)n2C)cc1,1,1.0,0,-5,1.8%,-0.6
O=S(=O)(c1ccccc1)c1nc(-c2cccs2)oc1SCc1ccccc1Cl,·,·,·,-2,1.6%,0.8
C[C@H](CO)N1C[C@H](C)[C@@H](CN(C)S(=O)(=O)c2cccs2)Oc2c(NC(=O)Nc3ccccc3)cccc2C1=O,0,0.4,18,-10,2.0%,-0.3
Cn1c(Cn2c(=O)sc3ccccc32)nnc1SCC(=O)NCCc1ccccc1,2,-2.1,12,9,-2.0%,3.8
CCOC(CNC(=O)Cc1c(C)nc2c(-c3ccccc3)c(C)nn2c1C)OCC,0,-0.9,3,-1,0.1%,-0.6
CC(=O)Nc1sc(NC(=O)c2ccc(Cl)cc2)nc1-c1cccs1,-1,0.7,2,5,7.3%,0.0
CCCn1c(N)c(C(=O)COC(=O)c2cccc(S(=O)(=O)N3CCOCC3)c2)c(=O)[nH]c1=O,·,-1.2,0,2,2.2%,-1.3
CCOC(=O)C(C(=O)OCC)C(C[N+](=O)[O-])c1ccccc1 (stereo not drawn),·,2.9,7,1,0.4%,-1.5
CC(=O)N(CCc1cccc(C)c1)Cc1cc2cc(C)ccc2[nH]c1=O,·,2.7,10,·,1.4%,·
C/C(=N\NC(=O)c1ccn(C)n1)c1ccc(NC(=O)C2CCC2)cc1,-25,-1.7,?,-23,-0.1%,0.1
O=C(COc1cccnc1[N+](=O)[O-])Nc1ccc2c(c1)OCO2,·,-3.3,8,5,1.7%,0.0
Cc1ccc(-c2n[nH]c(=S)c3ccccc23)cc1,·,-3.2,-6,2,-2.7%,0.3
CCCC[C@@H]1CNC(=O)C(=O)N1CCCCC1CCCCC1,0,·,6,·,0.0%,0.1
COc1ccc(CC(=O)NCc2ccc3c(c2)CCN3C(C)=O)cc1,·,·,·,-9,-0.5%,1.2
CCCS(=O)(=O)N1CCc2cc(OC)c(OC)cc2C1,1,0.3,1,-18,-0.1%,-0.7
Cc1ccc2nc(SCn3nnc4ccccc4c3=O)[nH]c2c1,-2,5.0,-15,7,4.5%,3.1
c1ccc2sc(N3CCCCC3)nc2c1,8,-1.7,2,14,2.9%,1.8
CCOCCCNC(=O)CN1C(=O)CSc2cc(S(=O)(=O)N3CCCCCC3)ccc21,-4,-1.5,7,24,·,0.3
O=S1(=O)N=C(Nc2ccc(O)c(CN3CCCCC3)c2)c2ccccc21,4,-3.1,0,6,2.0%[38.3 µM],-0.4
COc1ccccc1NC(=O)c1cccnc1,-1,1.7,10,-11,-0.6%,0.0

# High-throughput results (PubChem)
